Kir21 inh: inhibitors of mouse Kir2.1 inward-rectifier potassium channel; P35561; HEK293-Kir2.1, FluxOR thallium flux fluorescence; stronger effect = lower value; B-score at 10 µM; actives 0.85% (n = 310,000); AID 1672;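 active = fluorescence ratio B-score at or below minus 3 SD of library scores, with starting-brightness B-score within 2 SD, cut at about -4.2 in these data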;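 note: channel flux triggered by added potassium and thallium sulfate stimulus; B-score of peak minus minimum fluorescence over baseline after thallium stimulus; more negative B-score means stronger Kir2.1 block with less thallium influx; some compounds called inactive have numbers as strong as hits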
Target sequence (P35561 whole entry, looked up): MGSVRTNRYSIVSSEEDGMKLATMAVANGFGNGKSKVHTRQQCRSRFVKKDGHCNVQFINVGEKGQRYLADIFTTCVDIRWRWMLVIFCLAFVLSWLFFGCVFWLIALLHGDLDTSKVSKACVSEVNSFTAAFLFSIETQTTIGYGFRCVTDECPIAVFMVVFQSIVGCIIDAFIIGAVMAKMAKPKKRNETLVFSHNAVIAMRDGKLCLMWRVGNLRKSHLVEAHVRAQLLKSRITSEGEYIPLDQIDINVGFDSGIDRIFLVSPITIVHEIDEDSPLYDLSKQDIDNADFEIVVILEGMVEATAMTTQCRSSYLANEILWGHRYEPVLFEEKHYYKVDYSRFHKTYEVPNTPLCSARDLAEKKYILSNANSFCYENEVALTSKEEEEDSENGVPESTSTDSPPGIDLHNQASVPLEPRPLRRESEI
An asterisk follows results filed as active; & = joins results of further samples. Only part of the results is shown, and most or all hits are left out here.

Start of the data: the first two entries, ahead of the listing:
SMILES	Kir21 inh
O=S(=O)(NCc1ccccc1)c1ccc2ccccc2c1	-0.07
Cc1ccc(C(NC(=O)Nc2ccccn2)C(Cl)(Cl)Cl)cc1F (stereo not given)	0.32

The list itself, repeating the preview:
SMILES	Kir21 inh
O=S(=O)(NCc1ccccc1)c1ccc2ccccc2c1	-0.07
Cc1ccc(C(NC(=O)Nc2ccccn2)C(Cl)(Cl)Cl)cc1F (stereo not given)	0.32
COc1ccc(C(=O)NC(=S)Nc2nc(-c3ccc(OC)c(Br)c3)cs2)cc1Br	-2
Cc1cccc(C(C)C)c1NC(=O)CN(C)Cc1cccc(F)c1	-1.1
COc1ccc(NS(=O)(=O)c2ccc(OC)c(OC)c2)cc1OC	-0.9
COC(=O)c1cc(OC)c(OC)cc1NC(=O)Nc1ccc(OC)cc1OC	0.09
O=C(C1CCCCC1)N1CCN(c2nc(-c3ccc(F)cc3)cs2)CC1	0.92
O=[N+]([O-])c1cccc(-n2nncc2-c2ccccc2)c1	-0.19
Cc1cnc(C(=O)Nc2ccc(F)c(F)c2)cn1	-1.3
Cn1ncc(Cl)c1C(=O)NCc1ccc(Cl)cc1	-0.62
COCCn1c(SCC(=O)Nc2ccc3c(c2)CCC3)nc2ccccc2c1=O	0.82
CCCc1nnc(NC(=O)CCC(=O)Nc2ccc(Cl)cc2)s1	0.09

Look-ups from the entries so far:
COc1ccc(NS(=O)(=O)c2ccc(OC)c(OC)c2)cc1OC in Kir21 inh → -0.9
CCCc1nnc(NC(=O)CCC(=O)Nc2ccc(Cl)cc2)s1 in Kir21 inh → 0.09
O=S(=O)(NCc1ccccc1)c1ccc2ccccc2c1 in Kir21 inh → -0.07
Cc1ccc(C(NC(=O)Nc2ccccn2)C(Cl)(Cl)Cl)cc1F (stereo not given) in Kir21 inh → 0.32
COC(=O)c1cc(OC)c(OC)cc1NC(=O)Nc1ccc(OC)cc1OC in Kir21 inh → 0.09
Cc1cnc(C(=O)Nc2ccc(F)c(F)c2)cn1 in Kir21 inh → -1.3

Other compounds follow.
SMILES	Kir21 inh
COc1cccc2nc3cc(C)c(C)cc3nc12	0.11
COc1ccc(-n2c(SCC(=O)Nc3nccs3)nnc2-c2ccccc2)cc1	0.34
O=C(Nc1ccccc1F)N1CCCC1c1cccnc1 (stereo not given)	0.44
CN(c1nc(-c2ccccc2)cs1)C1CCS(=O)(=O)C1 (stereo not given)	0.08
CCC(=O)N1CCc2cc(S(=O)(=O)CCC(=O)Nc3ccc(C)c(F)c3)ccc21	0.36
CC1CCc2nc(NC(=O)C3COc4ccccc4O3)sc2C1 (stereo not given)	-0.3
Cc1ccc(S(=O)(=O)NC(C)C(=O)NC2CC2)cc1 (stereo not given)	0.58
CCCc1ccc(-c2ccc(/C=C/C(=O)O)cc2)nc1	0
CN(CC(=O)Nc1ccc(Cl)cc1)C1CCCCC1	-0.95
CCC(=O)NC(NC(=O)CC)C(Cl)Cl	0.74
COc1ccc(-c2cc(C(F)(F)F)nc(S(=O)(=O)CCC(=O)N3CCOCC3)n2)cc1	0.06
CC1CN(CC(=O)Nc2cc(S(=O)(=O)N3CCCC3)ccc2Cl)CC(C)O1 (stereo not given)	5.1
Clc1ccc2nc(N3CCCCC3)sc2c1	-2.3
CCc1c(C(=O)N/N=C/c2ccsc2)csc1C	0.51
COc1ccc(CNC(=O)C2CCC(=O)N(CCCN3CCCC3=O)C2)c(OC)c1 (stereo not given)	-0.6
O=C(CSc1ncnc2ccccc12)Nc1ccc2c(c1)OCCO2	-0.26
COc1ccc(C2OCC3(CO2)SC(N)=NC3=O)cc1 (stereo not given)	-1.3
Cc1c(NC(=O)C(C)OC(=O)c2cccnc2)c(=O)n(-c2ccccc2)n1C (stereo not given)	0.06
Cc1ccc2nc3c(cc(C(=O)NC4CCCC4)c(=N)n3C3CCCCC3)c(=O)n2c1	1.2
C/C(=N\NC(=O)c1sccc1C)c1cccnc1	-0.71
CCOc1ccc(C(=O)NN2C(=S)NC(C)(C)C=C2C)cc1	-0.13
CC1CCCCN1C(=O)Cn1cnc2c1c(=O)n(C)c(=O)n2C (stereo not given)	1.3
CC(=O)c1ccc(N2CCN(C(=O)c3ccc4c(c3)OCO4)CC2)cc1	1.5
O=C(COc1ccc(Br)cc1)NCCCNC(=O)c1ccncc1	0.34
Cc1cccc(C(=O)Nc2ccc(C(=O)N/N=C/c3cccc(C)n3)cc2)c1	-0.27
CCn1c(C(=O)NCc2ccccn2)cc2sccc21	-1.6
N#Cc1ccccc1S(=O)(=O)N1CCN(c2cnccn2)CC1	1.3
O=C(Nc1ccc(OC(F)(F)F)cc1)c1cnccn1	0.52
COc1cc(-n2c(=O)c3ccccc3n(CC(=O)c3ccccc3)c2=O)cc(OC)c1OC	0.78
O=C(c1cc(F)ccc1F)C1CCCN(C(=O)CCN2CCCCO2)C1 (stereo not given)	-0.36
CN(C)S(=O)(=O)N1CCC(Oc2cccc(C(=O)NCCCC3CCCC3)c2)CC1	0.73
O=C(Cc1cccc(C(F)(F)F)c1)NCc1cccc(Cl)c1	-1.1
CCOC(=O)c1c(-c2ccc(F)cc2)csc1NC(=O)CN1C(=O)NC2(CCCCC2C)C1=O (stereo not given)	2.9
COc1cccc(NC(=S)NN=C2CCC(C(C)(C)C)CC2)c1 (stereo not given)	2.6
CC(=O)Nc1ccc(OCC(=O)NC(C)C(C)C)cc1 (stereo not given)	0.31
Cc1[nH]nc2ncc(C(=O)c3ccccc3O)cc12	3.4

Four of the compounds above, as labelled records:
CCC(=O)NC(NC(=O)CC)C(Cl)Cl
  Kir21 inh: 0.74

COc1ccc(-c2cc(C(F)(F)F)nc(S(=O)(=O)CCC(=O)N3CCOCC3)n2)cc1
  Kir21 inh: 0.06

CC1CN(CC(=O)Nc2cc(S(=O)(=O)N3CCCC3)ccc2Cl)CC(C)O1 (stereo not given)
  Kir21 inh: 5.1

Clc1ccc2nc(N3CCCCC3)sc2c1
  Kir21 inh: -2.3

Going on with the list.
SMILES	Kir21 inh
CCCCn1c(SCC(=O)N2CCCC2)nc2c1c(=O)n(C)c(=O)n2C	-0.41
CCCc1ccc(OCC(=O)NNC(=S)NC(=O)c2ccco2)cc1	-0.11
CC1(C)C2CC=C(/C=N/NC(=O)c3ccc(O)cc3)C1C2 (stereo not given)	-0.19
Cc1cccc(C)c1NC(=S)N/N=C1\CC2CC=CC12 (stereo not given)	-0.06
CCc1nc2cc(Cl)c(Cl)cc2[nH]1	0.62
COc1cc2c(cc1NC(=O)c1cccc(S(=O)(=O)N(C)C)c1)oc1ccccc12	2.1
Cc1ccc([N+](=O)[O-])cc1NC(=O)Nc1ccc(S(N)(=O)=O)cc1	-0.11
COc1cc2ccccc2cc1-c1nnc(COc2ccccc2)o1	1.9
O=C(O)CSc1nc2ccccc2o1	0.16
CC(OC(=O)c1ccc([N+](=O)[O-])s1)C(=O)Nc1ncc(Cl)cc1Cl (stereo not given)	0.67
Cc1ccc(CNC(=S)N(C)C)cc1	0.56
Cn1cc(Br)c(C(=O)NNC(=O)Nc2ccccc2C(F)(F)F)n1	-1.1
COc1cc(OC)c(C2N(c3ccccn3)C(=O)C3CCCN32)cc1OC (stereo not given)	-0.05
N#Cc1c(-c2ccco2)nc(SCC(=O)Nc2cccc(Cl)c2)[nH]c1=O	0.51
COC(=O)c1oc2ccc(Br)cc2c1NC(C)=O	1.4
COC(=O)Nc1ccc(Cc2ccncc2)cc1	2.4
COc1cccc(NS(=O)(=O)c2c(C)nc3sccn3c2=O)c1	0.36
O=C(CSc1nnnn1CCCO)Nc1ccc2c(c1)OCO2	-0.91
COc1ccccc1/C=C/C(=C1/C(=O)N(c2ccccc2)N=C1C)c1ccc(C)cc1	2.3
Cn1cc(Br)c(C(=O)N/N=C/c2cc3ccccc3nc2Cl)n1	-0.27
COc1ccc(NC(=O)c2nc(S(=O)(=O)Cc3cccc(C)c3)ncc2Cl)c(OC)c1	1.2
COc1ccc([N+](=O)[O-])cc1NC(=O)C(C)N(C)Cc1cccc(OC)c1OC (stereo not given)	0.52
CS(=O)(=O)c1ccc2nc(NC(=O)c3cc(-c4ccccc4)nn3-c3ccccc3)sc2c1	0.09
CCOc1ccc(NC(=O)Cc2ccccc2)cc1	1.6
CC(=O)Nc1cccc(NC(=O)C2CC(=O)N(c3ccc(C)cc3)C2)c1 (stereo not given)	-1.6
O=C(Cc1ccc(Br)cc1)NNC(=O)Nc1ccc(Cl)cc1	0.03
Cc1ccc(C(=O)N2CCOCC2)cc1S(=O)(=O)N1CCCC1	0.49
O=C1CCN(Cc2ccccc2)S(=O)(=O)c2ccccc21	0.93
CCCN1C(=S)SC(C)(C)C1/[N+]([O-])=C/c1ccc(S(=O)(=O)NC)cc1 (stereo not given)	-0.09
c1ccc(Cn2nnc3c(N4CCC5(CC4)OCCO5)ncnc32)cc1	-0.2
COc1cccc(OC)c1C(=O)Oc1ccc2c(c1)O/C(=C\c1ccncc1)C2=O	0.09
O=C(CSc1nnnn1C1CCCCC1)Nc1ccccc1F	1.4
COc1cccc(C(=O)NCCS(=O)(=O)N2CCC3(CC2)OCCO3)c1	1.1
c1ccc2[nH]c(CSc3ncnc4c3oc3ccccc34)nc2c1	-3.1
CC(C)=CCCC(C)N(C=O)C(C)CCC=C(C)C (stereo not given)	-0.09
CCC1Oc2ccc(C)cc2N(CC(=O)NCCN2CCCCCC2)C1=O (stereo not given)	0.62

Random excerpt: 2 records from the list
SMILES	Kir21 inh
O=C(Nc1ccc(OC(F)(F)F)cc1)c1cnccn1	0.52
CC(C)=CCCC(C)N(C=O)C(C)CCC=C(C)C (stereo not given)	-0.09

Carrying on.
SMILES	Kir21 inh
O=C1c2ccccc2C(=O)N1CCCc1nc2ccccc2c(=O)n1-c1cccnc1	-2.9e-16
COCCCNc1nnc(Cc2ccc(Cl)cc2)c(=O)[nH]1	1.9
COC(=O)CC1C(=O)NC(C)=C1C(=O)OC (stereo not given)	1.1
C/C(=N\NC(=O)Cc1ccccc1)c1cccs1	0.71
O=C(CCNc1ccccc1)c1ccc2c(c1)OCO2	1.9
CN(C)/C=C/C(=O)c1ccc(Br)s1	-0.83
COc1ccc(CCNC(=O)CCC(=O)Nc2nnc(C(C)C)s2)cc1OC	-0.55
COCCNC(=O)Cn1ccc2cc(S(=O)(=O)N3CCCCC3)ccc21	0.62
CC12COC3(C(=O)N4CCN(c5ccccn5)CC4)CC1CCC32C (stereo not given)	0
CC(C)CC(=O)OCC(=O)Nc1ccccc1Sc1ccccc1	1.7
O=C(NCCc1ccccn1)c1cccnc1Oc1ccc(Cl)cc1	0.12
CCc1ccc(C2=NNC(=Nc3cccc(S(=O)(=O)N(C)C)c3)SC2)cc1	-1.1
CCOC(=O)c1sc(NC(=O)c2ccc(C)s2)cc1C	0.57
O=C(Cn1c(=S)[nH]c2ncccc2c1=O)NCCc1ccccc1	0.09
Cc1cc(Cl)ccc1C(=O)C1CCCN(C(=O)c2cccnc2C)C1 (stereo not given)	0.55
O=C(COC(=O)c1ccccc1)Nc1ccccc1N1CCOCC1	-2.2
CCOC(=O)/C=C/c1ccc2c(c1)S(=O)(=O)N(Cc1ccc(OC)cc1)[C@H]2CC(=O)OCC	-1.2
CC1CN(C(=S)NC(=O)c2ccc([N+](=O)[O-])cc2)CC(C)O1 (stereo not given)	-0.39
O=C(NC(Cc1c[nH]c2ccccc12)c1nnc2n1CCCCC2)c1ccccc1Cl (stereo not given)	-0.75
CSc1c(C#N)c(N)c(C#N)c2c1COC(C)(C)C2	-0.08
Cc1nc2sc(C(c3cccs3)N3CC(C)CC(C)C3)c(O)n2n1 (stereo not given)	-0.8
CC(C)CC1(C)NC(=O)N(CC(=O)NC(=O)Nc2ccc3c(c2)OCCO3)C1=O (stereo not given)	0.01
O=C(O)C1=C[C@H](c2csc3ccccc23)C[C@H](OCc2ccc(CO)cc2)O1	2.2
O=C(Nc1cccc2nsnc12)c1cccs1	0.42&-1.5
Cc1ccc(/C(COc2ccccc2O)=N\O)cc1	-2.2
CC(C)(C)Sc1ccc([N+](=O)[O-])cc1C(=O)Nc1ccncc1	0.02
CCN(CC)P(=O)(Nc1cccc(C(F)(F)F)c1)c1ccc(N(C)C)cc1NC(=O)c1ccco1 (stereo not given)	0.27
Nc1nn(S(=O)(=O)c2ccccc2)cc1-c1ccc([N+](=O)[O-])cc1	0.29
Nc1nnnn1/N=C/c1ccco1	-1.1
CCS(=O)(=O)N1CCN(c2nc(-c3ccccc3)cs2)CC1	2.4
O=C(CNS(=O)(=O)c1ccccc1)OCC(=O)c1ccc([N+](=O)[O-])cc1	-0.1
O=[N+]([O-])c1ccc(/C=N/Nc2cc(Cl)nc(-c3ccccc3)n2)cc1	-0.46
COCCNc1nnc(SCC(=O)c2c[nH]c3ccccc23)s1	0.01
C=CCN1CCN(C(CC(C)C)c2nnnn2CCOC)CC1 (stereo not given)	1.1
CCC1(CC)Cc2ccccc2-c2nc(CCl)[nH]c(=O)c21	0.13
Cc1ccc(S(=O)(=O)N(C)CC(=O)N2CCN(c3ccccn3)CC2)cc1	-0.02
Cc1cccc(NS(=O)(=O)c2ccc(NC(=O)N3CCCCC3)cc2)c1	0.7
O=C(CN1C(=O)NC2(CCCCC2)C1=O)NCCC1=CCCCC1	0.12
CN1CCc2nc3ccccc3c(C(=O)OCC(=O)N(CCC#N)c3ccccc3)c2C1	1.5
COc1ccc(CCCC(=O)NCc2ccccc2)cc1C	0.41
NC(=O)c1sc2nc3c(c(-c4ccco4)c2c1N)CCC3	-1.3
CN1CCc2cc(Cl)c(O)cc2[C@@H](c2ccccc2)C1	1.1
O=C(N/N=C/c1ccc2ncccc2c1)c1cc(-c2cccs2)nc2ccccc12	0.27
CC(C)CNC(=O)c1c2c(nc3ccccc13)-c1ccccc1CC2	-0.04
COc1ccc(-n2c(=S)[nH]c3cc(C(=O)NCc4ccco4)ccc3c2=O)c(OC)c1	1.1
Cc1ccccc1C(=O)N1CCN(c2ccc(NC(=O)c3cccnc3)cc2)CC1	2
Cc1ccc(C)c(SCC(=O)Nc2ccc(S(=O)(=O)Nc3ncccn3)cc2)c1	-1
COC(=O)c1sc2ncccc2c1OCc1ccccc1Cl	-0.98
COc1ccc(/C=C(/NC(=O)c2ccccc2)c2nc3ccc(Cl)cc3[nH]2)cc1OC	-0.28
CCC(=O)Nc1ccc(C(=O)NNC(=O)C(c2ccccc2)c2ccccc2)cc1	0.01
